Source: PubChem BioAssay
Sa RN4220 lethal: growth inhibition of S. aureus RN4220, primary screen, OD600 | 16 h | inhibition, % (test concentration not listed) | actives 0.33% (n = 330,000) | AID 1259311, 2017;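 active = z-score of -3 or lower and OD600 up to 0.18 on both plates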;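 also: plate controls were untreated cells for no effect and reference antibiotic for full effect; stock transfer was 100 nL into about 80 µL; one replicate is shown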
Autofluor counter: flagged as autofluorescent in microsphere protease counterscreen; compound autofluorescence counterscreen, microsphere flow cytometry; active compounds read high; fluorescence intensity (test concentration not listed); actives 3.1% (n = 360,000); AID 624483;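 active = at least 3 SD above the mean of all compounds, about 16000 in these data; inconclusive = too few beads counted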;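 also: 100 nL of 1 mM stock went into each well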
BJeLR lethal: MLPCN primary cell-based screen for lethality selective to Ras in HRASV12 cells; BJeLR (HRASV12) viability, CellTiter-Glo ATP luminescence, 48 h; reference of the scale not given here; inhibition, % (test concentration not listed); actives 0.17% (n = 300,000); AID 1554, 2009;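 active = replicate mean above 50%; inconclusive = above 50% but judged a plate artefact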;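 also: 50 nL library stock added to about 25 µL; numbers are from one replicate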
Mtb hypoxia rep: PubChem AID 1159583 | M. tuberculosis hypoxia-regulated fluorescent reporter, fluorescence | fluorescence inhibition, % (no concentration beside the values) | actives 0.1% (n = 300,000);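 active = 35 to 45% if threefold the growth effect, above 45% if 1.5-fold the growth effect; inactive = the rest, general growth blockers included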;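 also: wells of about 50 µL received 100 nL stock; 0% = vehicle wells and 100% = reference inhibitor wells; whole bacteria with a GFP reporter of the hypoxia response; strong numbers were not always called active; many hits fall short of the cut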
ugtP null kill: growth inhibition of ugtP-null S. aureus, primary screen, RN4220 ugtP deletion, OD600; 16 h; some inactives read as strong as hits; growth inhibition, % (test concentration not listed); actives 0.54% (n = 330,000);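 active = z-score under -3 and OD600 up to 0.15 on both plates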;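 also: plate controls were untreated wells for no effect and antibiotic for full effect; wells of about 80 µL received 100 nL stock; the first replicate is given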
PrP UTR inh: inhibition of PrP 5' UTR reporter expression; inhibition, % (test concentration not listed); actives 0.35% (n = 340,000); cell-based PrP 5' UTR mRNA reporter, plate reader;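 active = every replicate at 50% or more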;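 also: 0 = median of the neutral control wells; tested in H4 reporter cells; numbers are from one replicate; inactives centre near -14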
Mtb hypoxia rep growth: further read-out of Mtb hypoxia rep, marked with its call; growth inhibition, %; measured here: M. tuberculosis growth (absorbance);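 0% = vehicle and 100% = reference antibiotic; read after six days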
* = called active by the depositor; ? = inconclusive; nt = no result given.

Structure	Autofluor counter	ugtP null kill	Mtb hypoxia rep growth	PrP UTR inh	BJeLR lethal	Mtb hypoxia rep	Sa RN4220 lethal
O=[N+]([O-])c1cccc2ccc(/C=C/c3cccc(Br)c3)nc12	2638	-15	-1	-37	-10	2	-8.2
Cn1c(CC(=O)Nc2ccc(F)cc2)nnc1SCC(=O)NC1CCCCC1	3935	1	-5	-18	-7	0	0.5
COc1cc(SC)ccc1C(=O)NC1CCCc2ccccc21 (configuration not stated)	5801	-5	4	6	-1	-7	8.2
CC(=O)Nc1ccc(S(=O)(=O)N2CCCC(C(=O)N3CCN(c4ccccc4)CC3)C2)cc1 (configuration not stated)	?	9	0	-15	-5	9	2.8
CC(C)N1C(=O)C2C(C(=O)NCc3ccccc3)C3C=CC2(O3)C1C(=O)NC(C)(C)C (configuration not stated)	3689	12	5	-14	-3	7	5.0
CCOC(=O)c1c(SC)[nH]c2c(Cl)cccc2c1=O	3458	3	-7	-3	4	-7	6.3
O=C(N/N=C/c1cccn1-c1ccc([N+](=O)[O-])cc1)C(O)c1ccccc1 (configuration not stated)	3951	nt	nt	-34	-5	nt	nt
CN(C)c1nc2n(c(=O)n1)CCO2	10450	12	2	-35	2	0	5.3
Fc1ccccc1NC(=S)Nc1cccc2cnccc12	4941	0	3	-23	11	-4	4.0
Cc1cccc(NC(=O)Cc2nnc(NC(=O)Nc3ccccc3F)s2)c1	2436	-5	6	-16	4	3	1.7
C=CCN(CC(=O)NCC1CCCO1)C(=O)CCC(=O)Nc1cc(C)on1 (configuration not stated)	4863	1	3	-6	4	-6	1.9
COc1ccc(CCNC(=O)CCS(=O)(=O)c2ccc(C)cc2)cc1OC	8090	7	6	-1	-2	10	3.3
CCOC(=O)N1CCC(NC(=O)c2ccc3c(c2)N(C)C(=O)/C(=C/c2cccc(OC)c2)S3)CC1	5265	-7	-1	-16	-5	8	7.5
O=[N+]([O-])c1ccc(NN=Cc2ccc(O)cc2)nc1	3057	6	8	-85	nt	12	3.4
COc1cccc(CSc2nnnn2-c2ccc(O)cc2)c1	3465	-6	2	-5	5	-4	6.8
CCOc1ccc(/C=N/NC(=O)c2cc(-c3ccco3)nc3ccccc23)cc1	2489	nt	nt	-16	9	nt	nt
O=C(O)/C=C/c1cn(Cc2ccccc2)nc1-c1cccnc1	4918	1	-11	-21	22	0	0.4
O=c1[nH]c(=O)n(-c2ccccc2)c(O)c1/C=C1/C(c2ccccc2)=Nc2ccccc21	2565	-12	nt	-15	33	nt	6.4
NS(=O)(=O)c1ccc(CNC(=O)c2sccc2-c2ccccc2)cc1	4556	11	1	-21	0	5	4.6
CCn1ccnc1[C@@H]1C[C@H]2CN(Cc3ccccc3OC)C(=O)[C@]23CCCN13	5247	-1	1	-1	2	7	1.7
CC1CCN(c2cc(N3CCOCC3)c([N+](=O)[O-])cc2F)CC1	4102	5	nt	-23	5	nt	3.1
CC(CCc1ccccc1)NC(=O)CN1C(=O)NC2(CCCCC2)C1=O (configuration not stated)	3965	7	6	-8	-3	18	1.0
COc1ccc(-c2csc(NC(=S)NC(=O)c3ccc(S(=O)(=O)N(C)C)cc3)n2)cc1OC	5476	-8	8	-10	5	1	3.9
O=C(COc1ccccc1[N+](=O)[O-])Nc1ccccc1N1CCCC1	2208	3	3	-24	-20	-4	10
O=C(COC(=O)CCC(=O)c1ccc(F)cc1)Nc1nnc(-c2ccccc2)o1	5526	9	9	-14	-9	-3	8.3

Complete entries, looked up by structure. Values in the order: Autofluor counter, ugtP null kill, Mtb hypoxia rep growth, PrP UTR inh, BJeLR lethal, Mtb hypoxia rep, Sa RN4220 lethal
`COc1cc(SC)ccc1C(=O)NC1CCCc2ccccc21` (configuration not stated) across the screens: 5801, -5, 4, 6, -1, -7, 8.2
`CCn1ccnc1[C@@H]1C[C@H]2CN(Cc3ccccc3OC)C(=O)[C@]23CCCN13` across the screens: 5247, -1, 1, -1, 2, 7, 1.7
`CC1CCN(c2cc(N3CCOCC3)c([N+](=O)[O-])cc2F)CC1` across the screens: 4102, 5, nt, -23, 5, nt, 3.1

Further compounds
Structure	Autofluor counter	ugtP null kill	Mtb hypoxia rep growth	PrP UTR inh	BJeLR lethal	Mtb hypoxia rep	Sa RN4220 lethal
CC(N=Cc1cccc(O)c1O)c1ccccc1 (configuration not stated)	22938*	2	4	-8	1	1	5.1
COCCn1c(=O)[nH]c(=O)c2c1nc(-c1ccc(-c3ccc(Cl)cc3[N+](=O)[O-])o1)n2Cc1ccccc1	2454	-15	-1	-35	2	-4	2.9
Cc1nc2cc(F)ccc2n1C1CCN(Cc2nnnn2CCc2ccccc2)CC1	4226	-4	-8	-16	-10	-65	2.5
CCCN(CCC)c1nc2ccccc2nc1C(C#N)C(=O)OCCOC (configuration not stated)	2855	7	nt	-15	0	nt	2.8
CCCCC(CCC(=O)Nc1nccs1)C(=O)O (configuration not stated)	20150*	-7	6	-8	-2	14	3.7
O=c1cc(O)nc(-c2ccccc2)s1	5293	10	-7	-21	-1	11	7.4
COc1ccc(CCC(=O)NNC(=O)Cn2nc(C)cc2C)cc1	4834	9	-1	-30	-1	-1	3.2
O=C(COC(=O)c1ncc(Cl)c(Cl)c1Cl)NNC(=O)c1ccccc1	4098	nt	nt	-20	12	nt	nt
CCCCCCCCCOC(=O)C[n+]1csc(CCO)c1C	2336	6	2	-32	-4	4	0.4
CCOc1ncccc1C(=O)OCC(=O)Nc1ccc(S(=O)(=O)N2CCCC2)cc1	3443	3	5	-33	nt	8	4.4
Cc1ccc(NC(=O)CSc2nnc(COc3ccc(C#N)cc3)n2-c2ccccc2)cc1C	3245	-1	6	-19	0	5	1.9
COc1cc(/C=N/Nc2nc(N3CCCC3)nc(N3CCCC3)n2)ccc1O	8474	nt	nt	-10	8	nt	nt
CCOc1ccc2ccccc2c1/C=N/NC(=O)CNC(=O)c1ccccc1F	4043	nt	nt	-8	-1	nt	nt
CC(C)(O)c1ccc2c(c1)CCC1C(C)(C(=O)O)CCCC21C (configuration not stated)	4181	-8	nt	-11	3	nt	2.1
CC(=O)ON=Cc1c(C)c(C=O)n2ccccc12	nt	-6	9	nt	nt	9	8.3
Cc1ccc(C(C)C)c(OCCNC(=S)Nc2cccc3ccccc23)c1	11965	-26	3	-19	0	-3	-3.8
CC(C)Cn1c(N)c(C(=O)CSc2ncn[nH]2)c(=O)n(C)c1=O	?	13	5	-11	nt	-6	6.1
Cc1ccc(CN2CCN(Cc3ccc(OC(C)C)cc3)CC2CCO)o1 (configuration not stated)	4997	13	-4	-42	-2	12	3.2
CCOC(=O)CC1=NC(=O)CS1	2584	-6	7	-12	12	13	-10
CC(C)N1CCC(N2CCN(Cc3cc(F)ccc3-n3cccn3)CC2CCO)CC1 (configuration not stated)	4434	6	4	-13	4	8	1.7
CC(=O)c1cc(CN2CCN(C3CCN(C(C)C)CC3)C(CCO)C2)cs1 (configuration not stated)	2582	-1	10	-25	-2	9	-2.9
C/C(=N\NC(=O)c1cc(-c2ccccn2)nc2ccccc12)c1cccc([N+](=O)[O-])c1	3389	nt	nt	-5	-18	nt	nt
Cc1ccc(C(=O)NC(=Cc2ccco2)C(=O)NCC2CCCO2)cc1C (configuration not stated)	nt	2	3	nt	nt	9	3.1
Cc1cc(=O)n2nc(N3CCCC(C(=O)N4CCOCC4)C3)sc2n1 (configuration not stated)	2249	7	2	2	nt	8	0.2
COC1CCN(Cc2c(C(=O)N3CCc4ccccc4C3)nc3ccc(Cl)cn23)CC1	6199	1	5	-8	-9	8	3.3
COc1ccc(CNC(=O)c2ccc(NC(=O)C3CCCO3)cc2)cc1 (configuration not stated)	9155	-3	-1	-26	1	4	8.7
O=C1CCN(C(=O)CCCn2c(=O)oc3ccccc32)CC1	4034	4	-1	-5	-4	9	-2.9
Cc1ccc2c(c1)nnn2C1CCN(CC(=O)NCCc2nc3ccccc3[nH]2)CC1	7804	13	2	8	1	7	6.2
CN(Cc1cccs1)C(=O)Cc1csc(-c2ccccc2)n1	3280	11	9	-28	-6	-1	2.7
O=C(O)C1CC(=O)N(CCc2ccccc2)C1 (configuration not stated)	3271	5	nt	1	3	nt	0.2
Cc1ccc(C2c3[nH]c4ccccc4c3C[C@H]3C(=O)N(c4ccccc4C(=O)NCCCN4CCOCC4)C(=O)N23)cc1 (some centres not stated)	4198	-3	nt	-15	-4	nt	-5.5
COc1ccc(-c2noc(CCC(=O)NCCCN3CCC(Cc4ccccc4)CC3)n2)cc1	5333	5	nt	-22	41	nt	-3.2
COc1ccc(CN2CCC(n3nccc3NC(=O)C3CC3)CC2)cc1O	6689	9	0	-6	1	2	3.0
COc1ccc(N(CC(=O)NCc2ccc(F)cc2)C(=O)CCC(=O)Nc2ccccn2)cc1	6112	-5	-11	-9	-8	-16	0.2
C=CCN(c1ccc(C(=O)Nc2cccc([N+](=O)[O-])c2)cc1)S(C)(=O)=O	4607	nt	nt	-32	4	nt	nt
COC(=O)c1ccccc1NC(=O)c1cc(C2CC2)on1	6323	19	7	-5	-8	3	24
Cc1ccc(N(C(=O)c2csnn2)C(C(=O)NCc2ccccc2)c2cccnc2)cc1 (configuration not stated)	4717	6	1	10	7	-9	4.0
COc1cc(C(C)=NNC(=O)CN2CCN(S(=O)(=O)c3ccc(C)cc3)CC2)ccc1O	nt	9	-3	nt	nt	10	2.3
COc1ccc(-c2[nH]ncc2CN(C)CCN2CCOCC2)cc1F	4284	-4	5	-34	-2	13	8.6
CC[C@]12c3[nH]c4cc(CCC(=O)N(C)C)ccc4c3CCN1C(=O)[C@@H](CC(=O)NCc1cccc(C(F)(F)F)c1)C[C@@H]2C(=O)N1CCN(C(=O)c2ccco2)CC1	4053	1	14	-14	nt	-6	-1.0
CC(C)(C)NC(=O)C(c1cccs1)N(CC1CCCO1)C(=O)c1ccc(-c2ccccc2)[nH]1 (configuration not stated)	2319	-1	0	-18	-15	8	0.5
COCCCNc1cc(C)nc2ccccc12	4419	6	nt	-4	1	nt	-0.6
CSCC[C@H](NC(=O)c1ccc(Br)o1)c1nnc2ccccn12	5185	3	2	2	4	7	-0.6
NS(=O)(=O)c1ccc(NC(=O)COC(=O)CC2Sc3ccccc3NC2=O)cc1 (configuration not stated)	6643	-3	2	-2	nt	13	0.1
C/C(=N\Nc1ccc(F)cc1)c1ccc(N2CCOCC2)c(F)c1	3440	nt	nt	19	-9	nt	nt
Cc1cccc(CCNS(=O)(=O)c2ccc3c(c2)NC(=O)C(C)S3)c1 (configuration not stated)	4365	-4	-3	0	2	-4	2.9
CN(C(=O)COc1ncnc2sccc12)C1CCCCC1	3572	-4	-4	-8	nt	2	-2.6
CCOC(=O)Cn1c(=O)c2c(nc3n2CCS3)n(C)c1=O	3935	-3	7	-24	6	16	8.0
CCN(CC(=O)Nc1ccc(NC(C)=O)cc1)C(=O)CCCc1nc2ccccc2s1	4007	-3	9	16	nt	-10	-1.7
COc1ccc(S(=O)(=O)NCCCCC(=O)O)cc1C(=O)O	4158	5	10	-17	-7	12	5.8

Further structures follow.
Structure	Autofluor counter	ugtP null kill	Mtb hypoxia rep growth	PrP UTR inh	BJeLR lethal	Mtb hypoxia rep	Sa RN4220 lethal
CCC(=O)Nc1cccc(C(=O)c2ccc(C)c(C)c2)c1	3273	5	0	-13	-7	13	9.2
S=C(NCc1ccc2[nH]c3c(c2c1)CCCC3)Nc1ccccc1Cl	6721	-25	6	-9	-6	7	-3.9
CCCN(C=Nc1sc2c(c1C#N)CCCCC2)CCC	nt	65	4	nt	nt	10	1.5
Cc1cccc(OC(C)C(=O)N2CCc3ccccc3C2)c1 (configuration not stated)	3385	0	2	1	6	-6	0.0
CCN(N=O)[C@@H](Cc1ccccc1)CN(N=O)[C@@H](Cc1ccccc1)CN(C)N=O	3733	nt	nt	-11	10	nt	nt
O=S1(=O)CCN2C(Cc3ccc(SC(F)F)cc3)=CSC2=N1	2449	8	1	-14	-3	3	-0.9
CC(=O)c1c(Nc2ccc3c(c2)OCCO3)oc(C)cc1=O	5597	-6	nt	-29	-16	nt	1.9
COc1ccc(C)cc1NC(=O)CN(C)S(=O)(=O)c1cc(C)ccc1OC	1871	2	5	-18	-1	11	4.3
